# From PubChem
# YopH PTP inh = YopH tyrosine phosphatase inhibitors, primary screen, biochemical, fluorescence Ex485/Em525. inhibition, %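 (about 10 µM by stock and volumes)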. 140,000 tested, 0.16% active;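 active = inhibition of 50% or more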;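 also: controls were vehicle for no effect and minimum signal wells for full effect; inactives centre near -20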
# Mtb growth = M. tuberculosis H37Rv growth inhibitors, H37Rv strain (AID 1626); M. tuberculosis H37Rv growth inhibition; higher % means a stronger effect; 220,000 tested, 0.95% active; one-dose inhibition, % at 10 µM; IC50 in µM for titrated hits;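 active = confirmed in a dose series; inconclusive = inhibition above 80% but not taken into the dose series; inactive = below 80% or under 30% at every dose of the series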;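 also: bacteria incubated seven days before Alamar blue readout; 0% = bacteria only wells and 100% = bacteria with antibiotic wells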
# Mtb bLac sens = beta-lactam sensitization of Mtb H37Rv, H37Rv; M. tuberculosis H37Rv growth with meropenem, percent inhibition; hits of this screen are not shown here; inhibition, % at 25 µM; 330,000 tested, 0.27% active; AID 434955, 2010;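 active = about 74% or more and at least 40 points above the plate without the antibiotic, then above 30% in a dose series; inconclusive = first-round hits that could not be retested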;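 also: growth measured after seven days incubation then overnight dye step; 0% = bacteria only wells and 100% = bacteria with antibiotic; twin plates without the antibiotic show which effects depend on it; some results filed as inactive read as strong as hits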
# RecA splice inh = Mtb RecA intein splicing inhibitors, primary screen, biochemical, fluorescence, HTS. cell-free RecA intein splicing. inhibition, %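 (about 9 µM by stock and volumes)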. 290,000 tested, 0.75% active. AID 2221, 2009; in the data active = inhibition above about 30%; inconclusive = no clear call, values can overlap the other calls;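 also: 0% = vehicle wells and 100% = reference inhibitor control wells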
# Target sequence (P9WHJ3 whole entry, looked up, canonical isoform): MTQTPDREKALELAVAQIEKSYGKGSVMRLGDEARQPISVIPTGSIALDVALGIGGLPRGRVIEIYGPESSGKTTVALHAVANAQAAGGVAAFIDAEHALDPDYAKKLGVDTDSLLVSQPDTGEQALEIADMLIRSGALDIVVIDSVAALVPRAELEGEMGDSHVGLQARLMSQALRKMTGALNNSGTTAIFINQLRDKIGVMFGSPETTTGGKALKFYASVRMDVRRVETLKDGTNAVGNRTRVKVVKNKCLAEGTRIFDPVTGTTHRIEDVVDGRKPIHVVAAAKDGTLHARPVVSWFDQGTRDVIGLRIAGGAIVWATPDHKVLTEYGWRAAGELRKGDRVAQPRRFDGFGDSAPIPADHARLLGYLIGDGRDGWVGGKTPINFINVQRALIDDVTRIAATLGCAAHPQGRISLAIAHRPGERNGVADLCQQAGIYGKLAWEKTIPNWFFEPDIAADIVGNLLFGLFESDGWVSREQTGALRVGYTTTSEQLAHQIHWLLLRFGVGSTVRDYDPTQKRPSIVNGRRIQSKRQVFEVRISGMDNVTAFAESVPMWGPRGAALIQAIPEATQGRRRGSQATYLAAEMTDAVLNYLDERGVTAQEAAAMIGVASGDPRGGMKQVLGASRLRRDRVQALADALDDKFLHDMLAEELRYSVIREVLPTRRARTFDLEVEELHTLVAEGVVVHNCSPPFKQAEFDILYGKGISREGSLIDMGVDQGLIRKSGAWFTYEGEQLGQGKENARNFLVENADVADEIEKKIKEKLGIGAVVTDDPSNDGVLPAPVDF
# Arbovirus anti = antivirals against arbovirus infection, primary screen, cell-based, full library, 10K replicate subset; arbovirus infection cell-based antiviral screen; inhibition, % at 10 µM; 200,000 tested, 0.37% active; AID 1251, 2008;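 active = inhibition from about 30%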;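 also: bluetongue infection of BSR cells; cell survival read as ATP light after 72 h; 0% = infected wells without compound and 100% = uninfected wells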
# Arbovirus anti repeat = recorded beside Arbovirus anti, whose call it bears; inhibition, %; measured here: 10K subset replicate screen; many hits read low in the repeat;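 first of two repeat runs on a subset; 0% = infected and 100% = uninfected wells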
# The depositor's hits bear a star; ? = inconclusive; · = no result given. Some of the compounds tested; rates above refer to the full screens.
SMILES,YopH PTP inh,Mtb growth,Mtb bLac sens,RecA splice inh,Arbovirus anti,others
O=C1Nc2ccccc2N=C(c2ccccc2)C1Br (configuration not stated),·,-3%,-2,1.5,1,
COc1ccc(-c2[nH]ncc2[C@@H]2C[C@H]3CN(Cc4ccccc4C)C(=O)[C@]34CCCN24)cc1,·,8%,4,7.9,-8,
CC(=O)c1cnc2scnn2c1=O,·,3%,3,-1.8,7,
COc1ccc(-c2c3c(nc4sc(C(=O)Nc5ccccc5)c(N)c24)CCC3)cc1,-9,-2%,-7,-18,·,
S=C(Nc1ccc(Cl)c(Cl)c1)NC1CCN(Cc2ccccc2)CC1,19,?,94,6.3,-35,
O=C(C[n+]1ccccc1)N1CCCc2ccccc21,·,-7%,1,-0.4,-6,
COc1cc(OC)cc(N(C(=O)c2ccco2)C(C(=O)NC2CCCC2)c2ccc(N(C)C)cc2)c1 (configuration not stated),-10,7%,23,6.5,-31,
CC1(C)CC(CCNS(=O)(=O)c2ccccc2)(c2ccccc2)CCO1 (configuration not stated),-21,-2%,-5,2.5,7,
CCOc1ccc(S(=O)(=O)N2CCCC(C(=O)Nc3ccccc3)C2)cc1 (configuration not stated),·,·,1,0.0,·,
C=C1C(=O)O[C@@H]2[C@H]1[C@@H](OC(=O)/C(C)=C/C)C/C(C)=C\C(=O)/C=C(\C)[C@@H]2O,·,-11%,·,-1.1,·,

# Continued; it opens with the three that closed the last part.
SMILES,YopH PTP inh,Mtb growth,Mtb bLac sens,RecA splice inh,Arbovirus anti,others
CC1(C)CC(CCNS(=O)(=O)c2ccccc2)(c2ccccc2)CCO1 (configuration not stated),-21,-2%,-5,2.5,7,
CCOc1ccc(S(=O)(=O)N2CCCC(C(=O)Nc3ccccc3)C2)cc1 (configuration not stated),·,·,1,0.0,·,
C=C1C(=O)O[C@@H]2[C@H]1[C@@H](OC(=O)/C(C)=C/C)C/C(C)=C\C(=O)/C=C(\C)[C@@H]2O,·,-11%,·,-1.1,·,
Cc1ccc(S(=O)(=O)N(CC(=O)NCC2CCCO2)Cc2ccc(F)cc2)cc1 (configuration not stated),·,·,7,-5.0,·,
Cc1ccc(CCN2CC(C(=O)NCCN(C)C)CC2=O)cc1 (configuration not stated),·,·,-6,-2.1,·,
CC(C)NC(=O)c1cnc(N2CCN(c3ccccn3)CC2)c2ccccc12,-30,6%,-4,1.0,6,
CCOC(=O)c1csc(-n2nc(C)cc2C(F)(F)F)n1,·,7%,9,1.9,5,
COC(=O)c1ccsc1NC(=O)C1=COCCO1,-33,3%,3,-1.8,0,Arbovirus anti repeat=-2
O=C(NC1CCCCCC1)C1CCC(=O)N(Cc2ccccc2F)C1 (configuration not stated),·,·,-2,0.4,·,
CCSC(=O)N(CC)CC(=O)Nc1c(CC)cccc1CC,-18,4%,-9,-3.6,5,
COC(=O)[C@H](Cc1ccccc1)NC(=O)Nc1ccc(S(N)(=O)=O)cc1,0,-2%,-16,-0.1,3,
CCC(=O)N1CCc2cc(S(=O)(=O)N3CCN(c4cc(Cl)ccc4C)CC3)ccc21,·,·,-3,-3.8,·,
CCCCOc1ccc(-c2nc(SCC(N)=O)n[nH]2)cc1,-31,0%,50,-2.4,-1,
CC(=O)Nc1ccc(S(=O)(=O)NC2(C(F)(F)F)N=C(c3ccccc3)NC2=O)cc1 (configuration not stated),-44,-4%,3,-2.4,13,
Cc1ccc(/C=C/C(=O)N2CCN(S(=O)(=O)c3cccs3)CC2)o1,·,-6%,-4,2.9,·,
Cc1nn(-c2ccccc2)c(Cl)c1/C=N/NC(=O)c1ccc(CNc2ccccc2)o1,-21,44%,98,1.0,-13,
Cc1[nH]c2ccccc2c1/C=N/NC(=S)NCc1ccccc1,·,-3%,0,2.4,-27,
Cc1nnc(SCC(=O)Nc2ccccc2N2CCOCC2)s1,10,4%,-25,-0.3,2,
CCOC(=O)CNC(=O)c1ccc(OCC(F)(F)F)cc1,·,2%,-9,0.8,3,
COc1ccc(C2CC(=O)Oc3c2c(=O)n(C)c2ccccc32)c(OC)c1OC (configuration not stated),·,-7%,-3,-5.3,7,
COC(=O)[C@H](Cc1ccccc1)[C@@H](C)OS(N)(=O)=O,·,·,-6,-0.1,·,
COc1ccc2[nH]c(=O)c(-c3nnn(-c4ccc(Cl)nc4)n3)cc2c1,·,-6%,-8,-5.9,·,
CCC(C(=O)O/N=C(\N)c1ccc(C)cc1)c1ccccc1 (configuration not stated),-9,-7%,-4,4.2,-1,
COC(=O)c1ccc(CC(=O)c2ccc(O)cc2O)o1,-4,-18%,2,-0.8,15,
CCOc1ccc(OCC)c(NC(=O)CN2CCN(c3cccc(C)c3)C(C)C2)c1 (configuration not stated),-2,·,-10,1.3,1,
CC1CC(C)(C)OC(C[N+]2(C)CCCCC2)O1 (configuration not stated),·,-8%,-6,-1.6,·,
CC(=O)Nc1ccc(C(=O)COC(=O)CCS(=O)(=O)c2ccccc2)cc1,·,·,4,-1.0,·,
CC(=O)OC(COc1ccccc1)Cn1cnc2cc(C)c(C)cc21 (configuration not stated),·,-2%,1,-0.2,3,
Cc1cc(NC(=O)CCC(=O)N2CCC3(CC2)OCCO3)no1,-34,-2%,-2,0.5,4,
CCc1c(C)nc2c(-c3ccccc3)c(C)nn2c1Nc1ccc(NC(C)=O)cc1,·,38%,83,25,·,
O=C1C2C3C=CC(C3)C2C(=O)N1c1ccc2ccccc2n1 (configuration not stated),32,-4%,-9,·,4,
CSc1nsc2nc(=O)c(/C=C3\C(C)=Nc4ccc(C)cc43)c(N)n12,·,56%,3,-1.8,20,
COc1ccc(NC(=S)/N=C(\N)Nc2nc(C)c3ccc(C)cc3n2)cc1,·,?,91,-5.2,4,

# 3 structures out of the list, arranged by SMILES length, falling.
SMILES,YopH PTP inh,Mtb growth,Mtb bLac sens,RecA splice inh,Arbovirus anti,others
Cc1cc(NC(=O)CCC(=O)N2CCC3(CC2)OCCO3)no1,-34,-2%,-2,0.5,4,
COC(=O)c1ccc(CC(=O)c2ccc(O)cc2O)o1,-4,-18%,2,-0.8,15,
CC1CC(C)(C)OC(C[N+]2(C)CCCCC2)O1 (configuration not stated),·,-8%,-6,-1.6,·,

# (list continues)
SMILES,YopH PTP inh,Mtb growth,Mtb bLac sens,RecA splice inh,Arbovirus anti,others
CCC(=O)N(Cc1cc2ccccc2[nH]c1=O)C(C)C,-5,5%,-20,-0.3,12,
COc1ccc(C2=NS(=O)(=O)N(C)C(C(=O)NCc3cccs3)=C2)cc1OC,·,·,-2,-13,·,
COc1ccccc1NC(NC(=O)c1ccccn1)C(Cl)(Cl)Cl (configuration not stated),-32,-6%,-3,0.1,10,
N#Cc1nc(COc2cccc(Cl)c2)oc1NCc1ccco1,-31,17%,7,5.3,-8,Arbovirus anti repeat=0
CCN1CCN(S(=O)(=O)c2ccc3[nH]c(=O)oc3c2)CC1,-37,1%,-1,-1.2,1,Arbovirus anti repeat=21
Cc1nn(C)c(C(=O)Nc2ccc(Cl)c([N+](=O)[O-])c2)c1Cl,-20,6%,-3,-0.2,-5,
Cc1ccc(-c2csc3nc(CSc4nnc(-c5ccc(Cl)cc5)n4C)[nH]c(=O)c23)cc1,-31,0%,2,-0.1,12,
COCc1cc(C)nc2sc(C(=O)Nc3cccc(OC)c3)c(N)c12,·,·,-1,-45,·,
O=C(O)/C=C/c1cn(-c2ccccc2)nc1-c1ccc(-c2ccc([N+](=O)[O-])cc2)o1,·,-3%,90,-11,·,
Cc1ccc(S(=O)(=O)Cc2cc(F)c([N+](=O)[O-])cc2[N+](=O)[O-])cc1,·,·,100,35*,·,
CCO/C=C/C(=O)N(C)CCC#N,-47,-8%,4,·,12,
CCN(CC)c1ccc(CNc2nc3ccccc3n2CCN2CCCCC2)cc1,·,37µM*,45,-1.3,-23,
CC(C)c1ccc(NC(=O)C2CC(=O)N=C(N)S2)cc1 (configuration not stated),-12,-2%,-3,-1.8,5,
CCOc1ccc(S(=O)(=O)N2CCN(c3ccccc3OC)CC2)c2cccnc12,-34,7%,-12,4.3,34*,
CC1(C)CC(=O)C2=C(C1)Nc1cc(C(=O)c3ccccc3)ccc1NC2c1ccccn1 (configuration not stated),-24,8%,2,3.1,2,
S=c1nc[nH]c2c1cnn2-c1ccccc1,·,3%,64,-5.8,·,
CCOC(=O)c1c(-c2ccc(OC)cc2)csc1NC(=O)CCN1CCOCC1,·,-11%,5,1.9,2,
Cc1ccc(N=C2NC(=O)/C(=C/c3cccs3)S2)cc1C,-15,29%,82,-0.6,10,
CC(C)c1cc(C(=O)N2CCCC(Nc3ccc(F)c(F)c3)C2)nc(N)n1 (configuration not stated),·,·,-5,-4.1,·,
Cc1ccccc1C(=O)N1CCC(C(=O)Nc2ccc(C(C)C)cc2)CC1,·,·,-1,2.9,·,

# Random excerpt: 2 compounds from above.
SMILES,YopH PTP inh,Mtb growth,Mtb bLac sens,RecA splice inh,Arbovirus anti,others
Cc1ccc(S(=O)(=O)N(CC(=O)NCC2CCCO2)Cc2ccc(F)cc2)cc1 (configuration not stated),·,·,7,-5.0,·,
CCN(CC)c1ccc(CNc2nc3ccccc3n2CCN2CCCCC2)cc1,·,37µM*,45,-1.3,-23,

# Next part:
SMILES,YopH PTP inh,Mtb growth,Mtb bLac sens,RecA splice inh,Arbovirus anti,others
CS(=O)(=O)N(CC(=O)NCC1CCCO1)c1cc(Cl)ccc1Cl (configuration not stated),-22,-2%,-13,0.3,3,
Cc1oc(-c2ccccc2F)nc1CN1CCC(C(=O)NC2CCCCCCC2)CC1,-33,·,·,8.9,-8,
CC(=O)c1ccc(N2CCN(C(=O)[C@H](C)NC(=O)c3ccccc3Cl)CC2)cc1,·,·,8,-1.8,·,
O=C(COC(=O)c1cccnc1Cl)c1ccc(Cl)cc1Cl,-37,0%,0,1.0,1,
Cc1ccc(S(=O)(=O)N2CCN(C(=O)NCc3ccc(F)cc3)CC2)c(C)c1,·,·,-3,-0.9,·,
CN(C(=O)CSc1nnc(Cc2ccccc2F)n1N)C1CCS(=O)(=O)C1 (configuration not stated),-11,-5%,-13,-2.4,1,
Cc1ccc(S(=O)(=O)N2CCCC(NC(=O)N3CCN(c4ccccc4)CC3)C2)cc1 (configuration not stated),-51,7%,-5,-5.8,-4,
Cc1ccc(C(OC(=O)c2ccco2)C(=O)NCc2cccs2)cc1 (configuration not stated),-19,-6%,-2,2.4,5,
CCOc1ccc(N(CC(=O)NCc2ccccc2Cl)S(=O)(=O)c2c(C)noc2C)cc1,·,·,-8,-1.4,·,
Cc1ccc(-c2cc(C(=O)OCC(=O)N(C)c3c(N)n(Cc4ccccc4)c(=O)[nH]c3=O)c3ccccc3n2)o1,·,·,0,-1.0,·,
COc1ccc(-n2cnnc2SCC(=O)NCc2cccs2)cc1,-38,-10%,2,1.1,6,
Cc1nc(C(=O)N2CCC(n3nccc3NC(=O)Nc3ccccc3Cl)CC2)cs1,·,·,7,-1.6,·,
O=C(CC(c1ccc(F)cc1)c1ccco1)N1CCOCC1 (configuration not stated),-10,·,0,-0.4,1,
CCCCC(C(=O)NC(=O)NCc1ccccc1)N1C(=O)c2ccccc2C1=O (configuration not stated),-6,-1%,-6,3.1,1,
COc1cc(NS(=O)(=O)c2cc3[nH]c(=O)c(=O)[nH]c3cc2C)cc(OC)c1OC,·,·,4,0.0,·,
COc1ccccc1NC1=NCCS1,-7,-10%,-18,-0.9,2,
COc1ccc(OC)c(CNC(=O)c2ccc(C)c(NC(=O)C3=C(C)OCCS3)c2)c1,·,·,-4,4.7,·,
CC(C)(C)n1nnnc1CN1CCSCC1,-9,-6%,-8,-4.6,4,
CCSc1nnc(NC(=O)CSc2nnc(CNC(=O)c3ccc(OC)cc3)o2)s1,-42,-1%,8,-3.3,-8,
COc1ccc(C2C(C(=O)N3CCCCC3)CC(=O)N2c2ccc(OC)cc2)cc1 (configuration not stated),3,3%,0,·,3,
Cc1ccc(OCc2ccc(C(=O)Nc3nc4ccccc4n3Cc3ccccc3)o2)c([N+](=O)[O-])c1,-36,13%,76,1.0,-45,
Cc1nn(CC(=O)O)c(C)c1[N+](=O)[O-],·,-7%,-6,-1.1,6,
CCOC(=O)c1cccc(NC(=O)CSc2nc3ccccc3c(=O)n2CCOC)c1,-24,-11%,-1,·,6,
O=C(Nc1ccc(O)cc1)c1cc(S(=O)(=O)N2CCCC2)ccc1Cl,-24,-3%,1,2.5,-8,
S=C(NNc1ccnc2cc(Cl)ccc12)Nc1ccc(Cl)cc1Cl,·,?,90,8.8,·,
C=CCSc1nnc2c(n1)OC=Nc1ccc(Br)cc1-2,23,-8%,-8,·,5,
O=C(NC1CC1)C1CC(=O)N(C2CCCCC2)C1 (configuration not stated),-14,-5%,-5,-1.5,8,
